KCNQ2 pot = KCNQ2 (rat) channel potentiation; O88943; CHO-K1 KCNQ2, FluxOR thallium flux fluorescence; active compounds read high; B-score at 10 µM; 310,000 compounds, 0.54% hits;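 active = fluorescence ratio B-score at least 3 SD of library B-scores, with initial fluorescence B-score within 3 SD, cut at about 5.3 in these data; same plate scores as AID 2156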;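 note: B-score of peak minus minimum over baseline fluorescence ratio after K+ and Tl+ stimulus; positive B-score means potentiation of KCNQ2 with more thallium influx and brighter signal; only the inactives scoring about 0 or higher are listed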
Target sequence (O88943 whole entry, looked up): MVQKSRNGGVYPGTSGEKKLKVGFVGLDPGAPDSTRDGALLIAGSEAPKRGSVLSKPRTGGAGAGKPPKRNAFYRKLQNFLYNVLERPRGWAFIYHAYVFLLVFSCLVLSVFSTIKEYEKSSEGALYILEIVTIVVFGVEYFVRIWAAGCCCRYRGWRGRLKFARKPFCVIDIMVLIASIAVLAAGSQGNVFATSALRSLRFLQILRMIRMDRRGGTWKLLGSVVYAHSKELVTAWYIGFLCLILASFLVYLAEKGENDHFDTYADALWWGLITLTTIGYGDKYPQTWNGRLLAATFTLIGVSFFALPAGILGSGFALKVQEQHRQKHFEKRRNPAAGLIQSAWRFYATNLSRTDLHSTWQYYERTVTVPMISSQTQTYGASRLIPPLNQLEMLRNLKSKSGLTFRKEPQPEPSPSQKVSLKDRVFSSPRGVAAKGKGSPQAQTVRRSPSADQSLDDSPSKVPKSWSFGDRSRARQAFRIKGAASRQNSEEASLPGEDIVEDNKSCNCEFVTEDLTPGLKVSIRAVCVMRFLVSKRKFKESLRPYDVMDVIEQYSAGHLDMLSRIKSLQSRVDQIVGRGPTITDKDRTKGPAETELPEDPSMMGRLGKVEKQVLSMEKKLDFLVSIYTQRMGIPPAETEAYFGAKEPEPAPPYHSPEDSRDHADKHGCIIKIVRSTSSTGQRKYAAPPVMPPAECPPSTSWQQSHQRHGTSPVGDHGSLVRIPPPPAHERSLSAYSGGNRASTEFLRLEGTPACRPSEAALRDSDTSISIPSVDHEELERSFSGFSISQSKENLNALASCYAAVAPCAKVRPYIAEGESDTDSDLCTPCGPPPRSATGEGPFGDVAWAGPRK
KCNQ2 pot baseline = also measured in KCNQ2 pot; calls as there; B-score; compound at 10 µM; measured here: initial fluorescence intensity artifact check;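 brightness before thallium and not channel activity; 0 = typical well and far values either way flag optical interference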
* = called active by the depositor. The list is partial, so the mix of outcomes need not match the whole.

(1) c1ccc(-c2nnc(OCC3CCCO3)c3ccccc23)cc1 (stereo not given)
(2) Cc1c(Cl)cccc1NC(=O)Cn1cc(C(F)(F)F)cc(Cl)c1=O
(3) CCOC(=O)c1cn2nc(SCc3ccccc3)nc2nc1C
(4) CCOC(=O)CNC(=O)CSc1ncnc2c1cnn2-c1ccc(C)cc1
(5) O=C(CSc1nnc(NC(=O)c2ccco2)s1)Nc1cccc(F)c1
(6) COc1cc(C(=O)N2CCN(c3ccc([N+](=O)[O-])cc3)CC2)ccc1OCc1c(C)noc1C

assay / entry | 1 | 2 | 3 | 4 | 5 | 6
KCNQ2 pot | 1.2 | 0.95 | 2.2 | 0.05 | 0.03 | 0.08
KCNQ2 pot baseline | 0.58 | -1.6 | 0.34 | 2.2 | 1.2 | 1.3

Compounds from the list above with a carbonyl joined to an NH by a bond outside any ring, in the order listed:
(2) Cc1c(Cl)cccc1NC(=O)Cn1cc(C(F)(F)F)cc(Cl)c1=O
(4) CCOC(=O)CNC(=O)CSc1ncnc2c1cnn2-c1ccc(C)cc1
(5) O=C(CSc1nnc(NC(=O)c2ccco2)s1)Nc1cccc(F)c1

assay / entry | 2 | 4 | 5
KCNQ2 pot | 0.95 | 0.05 | 0.03
KCNQ2 pot baseline | -1.6 | 2.2 | 1.2

Additional entries follow:
(7) CN(C)C(CNc1ncccn1)c1ccccc1 (stereo not given)
(8) Cc1cc(C(=O)N/N=C/c2ccccc2Br)no1
(9) Cc1noc(NS(=O)(=O)c2ccc(NC(=O)c3oc4ccc(F)cc4c3C)cc2)c1C
(10) Cc1ccc(SCc2c(C(=O)N/N=C/c3ccncc3)nnn2-c2nonc2N)cc1
(11) COCCN1Cc2cccc(C(=O)Nc3ccc(S(=O)(=O)N4CCOCC4)cc3)c2C1=O
(12) CC(C)c1ccc(C(=O)CSc2n[nH]c(-c3ccncc3)n2)cc1

assay / entry | 7 | 8 | 9 | 10 | 11 | 12
KCNQ2 pot | 0.04 | 0.15 | 0.86 | 1.5 | 0.61 | 0.98
KCNQ2 pot baseline | 0.81 | -0.08 | -0.75 | 1.1 | -1.2 | 0.08

(13) Cc1cc2occ(CC(=O)NCc3cccs3)c2cc1C(C)C
(14) Cn1ccnc1SCC(=O)c1ccc(C#N)cc1
(15) COC(=O)c1ccccc1C(=O)N1CC(O)CO1 (stereo not given)
(16) CCN(CC)c1nc(Nc2ccc([N+](=O)[O-])cc2)nc(N(CC)CC)n1
(17) O=C(COc1ccc(Cl)cc1)Nc1nnc(S(=O)(=O)N2CCCCCC2)s1
(18) O=C(N/C(=C\c1cccs1)C(=O)N1CCOCC1)c1ccco1

assay / entry | 13 | 14 | 15 | 16 | 17 | 18
KCNQ2 pot | 3 | 0.29 | 0.63 | 1.9 | 0.67 | 0.33
KCNQ2 pot baseline | 0.14 | 0.42 | -0.45 | -0.47 | 0.61 | -2.5

(19) Cc1ccc2[nH]cc(C(=O)CN3CCN(C)CC3)c2c1
(20) COc1ccc(Nc2nc(N)nc(CSc3nncn3C)n2)cc1
(21) O=C(CCn1nc(-c2ccc(Cl)cc2)ccc1=O)N1CCOCC1
(22) CC(=O)c1cccc(CN2CCC(n3nccc3NC(=O)c3ccc4c(c3)OCO4)CC2)c1
(23) CN1CCN(S(=O)(=O)c2ccc3[nH]c(=O)oc3c2)CC1
(24) Cc1nc2c(sc(=S)n2Cc2ccco2)c(=O)n1CC(=O)Nc1ccccc1F

assay / entry | 19 | 20 | 21 | 22 | 23 | 24
KCNQ2 pot | 0.06 | 1.5 | 0.01 | 1.3 | 0.43 | 1.1
KCNQ2 pot baseline | -1.5 | 0 | 0.81 | -0.63 | -0.03 | -0.59

(25) COc1cc(Nc2ccccc2Cl)c([N+](=O)[O-])nc1[N+](=O)[O-]
(26) CCOC(=O)c1ccc(S(=O)(=O)N2CCN(CC3CC=CCC3)CC2)cc1 (stereo not given)
(27) CC(C)(C)n1ncc2c(=O)n(CC(=O)c3ccc(Cl)cc3)cnc21
(28) CCOC(=O)c1cc(NC(=O)Nc2ccc(OC)c(OC)c2)c(C)nc1C
(29) COC(=O)c1ccccc1NC(=O)CCC(=O)N1CCSc2ccccc21
(30) COc1cc(SC)ccc1C(=O)N1CCN(c2ccccc2OC)CC1

assay / entry | 25 | 26 | 27 | 28 | 29 | 30
KCNQ2 pot | 3 | 0.38 | 0.54 | 0.51 | 0.77 | 0.22
KCNQ2 pot baseline | -0.13 | 0.59 | 0.02 | 0.07 | 1.6 | -1.5

Rewritten with two lines to a compound: entries from further up
Fields – KCNQ2 pot	KCNQ2 pot baseline
(26) CCOC(=O)c1ccc(S(=O)(=O)N2CCN(CC3CC=CCC3)CC2)cc1 (stereo not given)
→ 0.38	0.59
(27) CC(C)(C)n1ncc2c(=O)n(CC(=O)c3ccc(Cl)cc3)cnc21
→ 0.54	0.02
(28) CCOC(=O)c1cc(NC(=O)Nc2ccc(OC)c(OC)c2)c(C)nc1C
→ 0.51	0.07
(29) COC(=O)c1ccccc1NC(=O)CCC(=O)N1CCSc2ccccc21
→ 0.77	1.6
(30) COc1cc(SC)ccc1C(=O)N1CCN(c2ccccc2OC)CC1
→ 0.22	-1.5

(next part)
(31) O=C(NCc1ccc(Cl)cc1)c1ccc(Cn2cc(C(F)(F)F)ccc2=O)cc1
(32) CS(=O)(=O)N1N=C(c2ccco2)CC1c1ccccc1Cl (stereo not given)
(33) Cc1ccc(S(=O)(=O)N(C)Cc2cc3ccccc3[nH]c2=O)cc1
(34) COc1ccc(CCNS(=O)(=O)CCNC(=O)c2ccc(OC)cc2)cc1
(35) Cc1cccc(NC(=O)c2c(F)c(F)c(F)c(F)c2F)c1
(36) CCN(c1ccccc1C(=O)O)S(=O)(=O)c1ccc2[nH]c(=O)[nH]c2c1

assay / entry | 31 | 32 | 33 | 34 | 35 | 36
KCNQ2 pot | 3.6 | 0.09 | 0.45 | 1.3 | 0.59 | 1.6
KCNQ2 pot baseline | 0.06 | 1.6 | -0.62 | 0.67 | -1.1 | -0.19

(37) O=C(Oc1cccc(-n2cnnn2)c1)C1CCCCC1
(38) CC1CCN(C(=O)CSc2nncn2-c2ccccn2)CC1
(39) COCCn1c(SCC(=O)NCC2CCCO2)nc2c([nH]c3ccccc32)c1=O (stereo not given)
(40) COC(=O)c1[nH]c(C)c(/C(O)=C2\C(=O)C(=O)N(CCN3CCOCC3)C2c2ccccc2OC)c1C (stereo not given)
(41) COc1ccc2c(c1)c(=O)oc1c(C)c(OCC(=O)N3CCc4ccccc4C3)ccc12
(42) COc1ccc(Cl)cc1C(=O)Nc1ccc(OCC(=O)N2CCOCC2)cc1

assay / entry | 37 | 38 | 39 | 40 | 41 | 42
KCNQ2 pot | 1.4 | 1.3 | 0.89 | 0.67 | 0.08 | 0.43
KCNQ2 pot baseline | -2.4 | -0.59 | -2 | -0.26 | 0.35 | -0.54

(43) CN(Cc1c(C(=O)N/N=C/c2ccc(F)cc2)nnn1-c1nonc1N)C1CCCCC1
(44) COc1ccc(Br)cc1S(=O)(=O)Nc1cccc(C)n1
(45) COC(=O)c1cc(NC(=O)CN2CCC(C(N)=O)(N3CCCCC3)CC2)cc(C(=O)OC)c1
(46) CC1CN(Cc2cc(=O)oc3cc(O)c(Cl)cc23)CC(C)O1 (stereo not given)
(47) CC(C)NCC(O)COc1ccc2c(c1)CCC2 (stereo not given)
(48) CCOc1ccc(S(=O)(=O)N(CC(=O)N/N=C/c2ccc(-c3ccc([N+](=O)[O-])cc3)o2)c2ccccc2)cc1

assay / entry | 43 | 44 | 45 | 46 | 47 | 48
KCNQ2 pot | 0.11 | 3.5 | 2.7 | 0.51 | 0.67 | 0.14
KCNQ2 pot baseline | 1.9 | -0.99 | 0.01 | 3 | -0.63 | -0.59

(49) CCN1CCN(c2nc3c(c(=O)[nH]c(=O)n3C)n2CCSc2nc3ccccc3s2)CC1
(50) COc1ccc(CCNC(=O)C2CCN(C(=O)c3ccc(Cl)cc3)CC2)cc1OC
(51) CCNC(=O)N1C(CC(=O)OCC)C(=O)NC2CCCCC21 (stereo not given)
(52) O=C(/C=C/c1ccc(F)cc1)N1CCN(c2ccccn2)CC1
(53) O=C(CCN1CCN(CCO)CC1)Nc1cccc(Br)c1
(54) Cc1ccccc1CN1CCN(CCCc2ccccc2)C(CCO)C1 (stereo not given)

assay / entry | 49 | 50 | 51 | 52 | 53 | 54
KCNQ2 pot | 0.11 | 0.01 | 0.39 | 0.01 | 1.7 | 0.69
KCNQ2 pot baseline | 0.01 | -0.25 | 0.03 | -0.39 | -3.3 | 0.03

(55) Cc1ccc(N2CC(C(=O)N3CCC4(CC3)CC(=O)c3ccccc3O4)CC2=O)cc1C (stereo not given)
(56) Cc1ccc(NC(=O)CN(C)S(=O)(=O)c2cccc3cccnc23)cc1
(57) CCOC(=O)C1C(=O)OC2(CCOC(C)(C)C2)C1C(=O)OCC (stereo not given)
(58) COC(=O)c1cc(F)c(-n2cncn2)c(F)c1
(59) CCOC(=O)C1=C(O)C(=O)N(CCCn2ccnc2)C1c1ccc(C)cc1 (stereo not given)
(60) O=C(Cc1ccc(F)cc1)N1CCN=C1SCc1cccc([N+](=O)[O-])c1

assay / entry | 55 | 56 | 57 | 58 | 59 | 60
KCNQ2 pot | 0.21 | 0.49 | 0.1 | 0.25 | 1.2 | 0.89
KCNQ2 pot baseline | 0.33 | -0.19 | 0.12 | 0.49 | 0.1 | 1.7

(61) CCCC(C)c1nc(C(N)=O)c2[nH]c(=O)n(-c3ccc(OC)cc3OC)c2n1 (stereo not given)
(62) CCCCn1c2ccc(F)cc2c2nnc(SCCN3CCOCC3)nc21
(63) N#CNC(=Nc1ccccc1)SCc1ccc(C(=O)O)cc1
(64) O=C(O)CC(CC(=O)Nc1ccc(-n2ccc(C(F)(F)F)n2)cc1)c1ccccc1 (stereo not given)
(65) CC(=O)CSc1nc2c(c(=O)[nH]c(=O)n2C)n1CCCc1ccccc1
(66) Cc1ccccc1-n1c(=O)n(Cc2ccc(C(=O)O)cc2)c(=O)c2[nH]cnc21
(67) CC(C)(C)n1ncc2c(=O)n(CC(=O)N3CCCCCC3)cnc21
(68) O=C(Nc1ccc(C(=O)O)cc1)Nc1ccc(F)cc1F

assay / entry | 61 | 62 | 63 | 64 | 65 | 66 | 67 | 68
KCNQ2 pot | 1 | 3.1 | 0.32 | 0.25 | 0.66 | 0.43 | 0.37 | 1.8
KCNQ2 pot baseline | -1.1 | 0.04 | 0 | 1.4 | -0.89 | 1.2 | 0.45 | -1.8

4 entries drawn at random from the list so far:
(61) CCCC(C)c1nc(C(N)=O)c2[nH]c(=O)n(-c3ccc(OC)cc3OC)c2n1 (stereo not given)
(68) O=C(Nc1ccc(C(=O)O)cc1)Nc1ccc(F)cc1F
(65) CC(=O)CSc1nc2c(c(=O)[nH]c(=O)n2C)n1CCCc1ccccc1
(66) Cc1ccccc1-n1c(=O)n(Cc2ccc(C(=O)O)cc2)c(=O)c2[nH]cnc21

assay / entry | 61 | 68 | 65 | 66
KCNQ2 pot | 1 | 1.8 | 0.66 | 0.43
KCNQ2 pot baseline | -1.1 | -1.8 | -0.89 | 1.2

High-throughput results deposited in PubChem by Johns Hopkins Ion Channel Center.
